# CSC inhib – blocks cancer stem cells | cancer stem cell-like cells viability, luminescence | inhibition, % at 7.5 µM | 300,000 tested, 1.1% active;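 active = mean at 75% or more and at least half the replicates too; tested in HMLE shEcad cells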;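 note: 0% = median of negative and 100% = median of positive control wells; the first replicate is given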
# UUG fidelity – modulators of start codon recognition fidelity in yeast; S. cerevisiae UUG-firefly luciferase reporter, luminescence/redox ratio; activity score, % at 18.7 µM; 350,000 tested, 0.13% active; AID 602363;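 active = replicate mean at a twofold rise or more, about +100% in these data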;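 note: firefly luciferase made from a UUG start codon reports start codon fidelity; reporter light over untreated wells divided by growth signal over untreated wells; some hits fall short of that in this replicate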
# HIV Env fusion – inhibitors of HIV Env-mediated cell fusion | AID 651610 | inhibition, % at 12.3 µM | HeLa-JRFL Env/CEM21 cell fusion, luciferase | 360,000 tested, 1.1% active;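 active = mean replicate inhibition score of at least 50 and every replicate individually at or above 50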;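 note: 0% = plate neutral controls and 100% = maraviroc near 300 nM; one replicate is shown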
# * hit, by the source's call; · = not tested or not shown; [ ] = dose if it differs, or a comment. Some of the compounds tested; rates above refer to the full screens.
1	CN1c2ccc(-c3ccccc3F)cc2[C@@H]2[C@@H](CCN2S(=O)(=O)c2ccccc2F)[C@H]1CO
2	C[C@H](CO)N1C[C@H](C)[C@@H](CN(C)Cc2ccc(Oc3ccccc3)cc2)Oc2c(NC(=O)Nc3ccc(F)cc3)cccc2C1=O
3	O=C(C[C@H]1CC[C@H]2[C@@H](COC[C@@H](O)CN2CCc2ccccc2)O1)NCc1ccc(Oc2ccccc2)cc1
4	OC[C@@H]1[C@@H](c2ccc(/C=C/c3ccccc3)cc2)[C@H]2CN(Cc3cccnc3)CCCCN12
5	Cc1ccc(S(=O)(=O)Nc2ccc3c(c2)CC(=O)N([C@H](C)CO)C[C@@H](C)[C@@H](CN(C)CC2CCCCC2)O3)cc1
6	N#Cc1cccc(-c2ccc([C@@H]3[C@H]4CN(C(=O)Nc5ccc(F)cc5)CCCCN4[C@H]3CO)cc2)c1
7	C[C@@H]1CN([C@@H](C)CO)C(=O)c2cccc(NC(=O)c3ccncc3)c2O[C@@H]1CN(C)Cc1ccc(Oc2ccccc2)cc1
8	O=S(=O)(c1ccccc1)N1C[C@H]2[C@@H](c3ccccc31)[C@H](CO)N2Cc1ccc2c(c1)OCO2
9	C[C@H](CO)N1C[C@H](C)[C@H](CN(C)S(=O)(=O)c2cccs2)Oc2ncccc2C1=O
10	O=C(COC(=O)CCS(=O)(=O)c1ccccc1)Nc1ccc(N2CCCCC2)cc1

Screen / compound no.,1,2,3,4,5,6,7,8,9,10
CSC inhib,·,·,·,·,·,·,·,·,·,-10
UUG fidelity,-5,0,2,-14,-9,5,-4,5,-11,-11
HIV Env fusion,·,·,·,·,·,·,·,·,·,·

# Three compounds out of the list above, arranged by the value under UUG fidelity, largest number first:
cpd | SMILES | UUG fidelity | HIV Env fusion
3 | O=C(C[C@H]1CC[C@H]2[C@@H](COC[C@@H](O)CN2CCc2ccccc2)O1)NCc1ccc(Oc2ccccc2)cc1 | 2 | ·
9 | C[C@H](CO)N1C[C@H](C)[C@H](CN(C)S(=O)(=O)c2cccs2)Oc2ncccc2C1=O | -11 | ·
4 | OC[C@@H]1[C@@H](c2ccc(/C=C/c3ccccc3)cc2)[C@H]2CN(Cc3cccnc3)CCCCN12 | -14 | ·

# Next section
11	CC(NCC(=O)Nc1ccccc1C(=O)NC1CC1)c1ccc(S(N)(=O)=O)cc1 (configuration not stated)
12	Cc1ccc(NC(=O)COC(=O)c2ccc(Cl)nc2)cc1S(=O)(=O)N1CCCCC1
13	O=C(COC(=O)c1cc(Cl)ccc1O)Nc1ccccc1C(=O)NC1CC1
14	O=C(C[C@H]1C[C@@H]2c3cc(NS(=O)(=O)c4ccc(F)cc4)ccc3O[C@@H]2[C@H](CO)O1)NC1CCCCC1
15	CCc1cnc(N2[C@H](C#N)[C@H](c3ccccc3-c3ccccc3C)[C@H]2CO)s1
16	CC(C)NC(=O)Nc1ccc2c(c1)CC(=O)N([C@@H](C)CO)C[C@@H](C)[C@@H](CN(C)S(=O)(=O)c1ccccc1)O2
17	COc1ccc(NC(=O)Nc2ccc3c(c2)[C@@H]2C[C@@H](CC(=O)N4CCN(C)CC4)O[C@@H](CO)[C@@H]2O3)cc1
18	C[C@@H]1CN([C@H](C)CO)C(=O)c2cc(NC(=O)C3CC3)ccc2O[C@H]1CN(C)C
19	Nc1nc2c(-c3ccc([N+](=O)[O-])cc3)nnn2c2ccccc12
20	COCC(=O)N(C)C[C@H]1Oc2cc(-c3ccccc3F)ccc2S(=O)(=O)N([C@@H](C)CO)C[C@@H]1C

Screen / compound no.,11,12,13,14,15,16,17,18,19,20
CSC inhib,-14,0,-5,·,·,·,·,·,·,·
UUG fidelity,-10,-16,-20,·,·,·,·,·,·,·
HIV Env fusion,·,·,·,2[16.7 µM],-6[16.7 µM],4[16.7 µM],-5[16.7 µM],6[16.7 µM],-87,-21[16.7 µM]

# Compound profiles, from the list above. Order of screens: CSC inhib, UUG fidelity, HIV Env fusion
# CC(NCC(=O)Nc1ccccc1C(=O)NC1CC1)c1ccc(S(N)(=O)=O)cc1 (configuration not stated) is listed with -14, -10, ·
# Cc1ccc(NC(=O)COC(=O)c2ccc(Cl)nc2)cc1S(=O)(=O)N1CCCCC1 is listed with 0, -16, ·
# CCc1cnc(N2[C@H](C#N)[C@H](c3ccccc3-c3ccccc3C)[C@H]2CO)s1 is listed with ·, ·, -6[16.7 µM]

# The list goes on:
21	CN1C(=O)c2cc(NC(=O)c3ccccc3F)ccc2OC[C@H]2O[C@H](CC(=O)NCc3ccc4c(c3)OCO4)CC[C@H]21
22	COc1ccc2c3c(n(C)c2c1)[C@H](CO)N(C(=O)c1ccc(F)cc1)CC31CN(CC2CC2)C1
23	CCNC(=O)[C@H]1[C@H](CO)[C@H]2Cn3c(ccc(-c4ccccc4)c3=O)[C@@H]1N2CCC(F)(F)F
24	CN1CCN(C(=O)C[C@@H]2C=C[C@H](NC(=O)Nc3ccccc3F)[C@H](CO)O2)CC1
25	CO[C@@H]1CC[C@H]2CCN(C)C(=O)C[C@H](c3ccccc3)CN(C)C(=O)c3cc(C#N)ccc3OC[C@@H]1O2
26	Cc1ccc(S(=O)(=O)Nc2ccc3c(c2)C(=O)N([C@H](C)CO)C[C@@H](C)[C@H](CN(C)Cc2ccc(Oc4ccccc4)cc2)O3)cc1
27	COC(=O)C[C@@H]1CC[C@@H]2[C@@H](COc3ccc(NC(=O)Nc4cc(C)cc(C)c4)cc3C(=O)N2C)O1
28	Cc1ccc(S(=O)(=O)N(C)C[C@@H]2Oc3ccc(NS(=O)(=O)c4cn(C)cn4)cc3CC(=O)N([C@@H](C)CO)C[C@@H]2C)cc1
29	COc1cccc(S(=O)(=O)Nc2ccc3c(c2)[C@H]2C[C@@H](CC(=O)NCc4ccccc4F)O[C@H](CO)[C@H]2O3)c1
30	O=C(C[C@@H]1CC[C@H]2[C@@H](COC[C@H](O)CN2CC2CCCC2)O1)NCc1ccc(Cl)cc1

Screen / compound no.,21,22,23,24,25,26,27,28,29,30
CSC inhib,·,·,·,·,·,·,·,·,·,·
UUG fidelity,·,·,·,·,·,·,·,·,·,·
HIV Env fusion,7[16.7 µM],-21[16.7 µM],-15[16.7 µM],8[16.7 µM],-22[16.7 µM],8[16.7 µM],6[16.7 µM],3[16.7 µM],8[16.7 µM],34[16.7 µM]

31	CCCNC(=O)N1C[C@@H](C)[C@H](OC)CN(C)C(=O)c2ccc(NS(=O)(=O)CC(F)(F)F)cc2OC[C@@H]1C
32	CC(C)NC(=O)Nc1ccc2c(c1)C(=O)N([C@@H](C)CO)C[C@@H](C)[C@@H](CN(C)C(=O)Cc1ccccc1)OCCCC[C@@H](C)O2
33	COC(=O)N1C[C@H](OC)[C@H]2C[C@@H]1c1ccccc1O2
34	COC(=O)C1=C(C)N(C)C(=NCc2ccccc2)NC1c1ccc(F)cc1 (configuration not stated)
35	C[C@@H]1CN([C@@H](C)CO)C(=O)c2c(c3ccccc3n2C)-c2ccccc2CO[C@H]1CN(C)S(=O)(=O)CC(F)(F)F
36	O=C(C[C@H]1CC[C@H]2[C@@H](COC[C@H](O)CN2Cc2cc(F)cc(F)c2)O1)Nc1nccs1
37	COc1ccc(CN(C)C[C@@H]2Oc3ccc(NC(=O)Cc4ccccc4)cc3C(=O)N([C@H](C)CO)C[C@@H]2C)cc1
38	CC(C)NC(=O)N(C)C[C@@H]1OCCCC[C@@H](C)Oc2ccc(NC(=O)c3ccccc3)cc2C(=O)N([C@@H](C)CO)C[C@H]1C
39	CC(C)C#Cc1ccc2c(c1)O[C@@H](CN(C)C)[C@H](C)CN([C@H](C)CO)S2(=O)=O
40	CCCNC(=O)Nc1ccc2c(c1)C(=O)N(C)C[C@@H](OC)[C@@H](C)CN(Cc1ccncc1)[C@H](C)CO2

Screen / compound no.,31,32,33,34,35,36,37,38,39,40
CSC inhib,·,·,·,·,·,·,·,·,·,·
UUG fidelity,·,·,·,·,·,·,·,·,·,·
HIV Env fusion,-5[16.7 µM],19[16.7 µM],-25,-11,0[16.7 µM],-19[16.7 µM],7[16.7 µM],-5[16.7 µM],9[16.7 µM],-9[16.7 µM]

41	COCCNC(=O)C[C@H]1C[C@H]2c3cc(NC(=O)CN(C)C)ccc3O[C@H]2[C@@H](CO)O1
42	C#CCNC(=O)C[C@H]1C[C@@]2(C(=O)OC)C(=C[C@H](C(C)C)O[C@@H]2C2CC2)N(Cc2ccccc2)C1=O
43	CCCC(=O)N1CC2(C1)CN(C(=O)CN1CCOCC1)[C@H](CO)c1c2c2ccc(OC)cc2n1C
44	CO[C@@H]1CN(C)C(=O)c2ccc(NS(=O)(=O)c3ccccc3C)cc2OC[C@H](C)N(C)C[C@H]1C
45	O=C(O)[C@H]1[C@H](CO)[C@H]2Cn3c(ccc(/C=C/c4ccccc4)c3=O)[C@H]2N1Cc1ccc2c(c1)OCO2
46	CO[C@H]1CN(C)C(=O)c2cc(NC(=O)NC(C)C)ccc2OC[C@@H](C)N(CC2CC2)C[C@@H]1C
47	Cc1cc(Br)cn2c(Cc3ccccc3C(F)(F)F)c(-c3cccc(Cl)c3)nc12
48	CS(=O)(=O)N1C[C@H](O)COC[C@@H]2O[C@@H](CC(=O)NCCc3ccncc3)CC[C@H]21
49	COc1ccccc1CCn1cnc(-c2ccc(OC)c(OC)c2)c1CC(C)C
50	COC(=O)[C@]12C[C@H](CC(=O)NCCc3ccccc3OC)C(=O)N(Cc3ccc4c(c3)OCO4)C1=C[C@H](COCc1ccccc1)O[C@@H]2C

Screen / compound no.,41,42,43,44,45,46,47,48,49,50
CSC inhib,·,·,·,·,·,·,·,·,·,·
UUG fidelity,·,·,·,·,·,·,·,·,·,·
HIV Env fusion,0[16.7 µM],-16,12[16.7 µM],-1[16.7 µM],-30[16.7 µM],4[16.7 µM],2,4[16.7 µM],29,-50

# An excerpt from the list above:
1	CN1c2ccc(-c3ccccc3F)cc2[C@@H]2[C@@H](CCN2S(=O)(=O)c2ccccc2F)[C@H]1CO
2	C[C@H](CO)N1C[C@H](C)[C@@H](CN(C)Cc2ccc(Oc3ccccc3)cc2)Oc2c(NC(=O)Nc3ccc(F)cc3)cccc2C1=O
3	O=C(C[C@H]1CC[C@H]2[C@@H](COC[C@@H](O)CN2CCc2ccccc2)O1)NCc1ccc(Oc2ccccc2)cc1

Screen / compound no.,1,2,3
CSC inhib,·,·,·
UUG fidelity,-5,0,2
HIV Env fusion,·,·,·

# New compounds follow
51	CN1C(=O)c2cc(NC(=O)c3cccc(F)c3)ccc2OC[C@@H]2O[C@@H](CC(=O)NCC3CCCCC3)CC[C@@H]21
52	Cc1noc(C)c1S(=O)(=O)N(C)C[C@H]1Oc2ccc(NC(=O)Nc3ccccc3)cc2CC(=O)N([C@@H](C)CO)C[C@@H]1C
53	COC(=O)c1c(-c2ccc(OC)cc2)c2c(c3c4cc(OC)ccc4n(C(=O)c4ccccc4)c13)C(=O)N(C)C2
54	CC(C)(C)[S@@](=O)N1Cc2cc(C(=O)N3CCCCC3)nc(-c3cccc(-c4ccccc4F)c3)c2[C@H]1CCO
55	CN(C)C(=O)C[C@H]1CC[C@@H]2[C@H](COc3ccc(NC(=O)c4ccc(F)cc4)cc3C(=O)N2C)O1
56	CO[C@H]1CN(C)C(=O)c2cc(NC(=O)Nc3ccc(Cl)c(Cl)c3)ccc2OC[C@@H](C)NC[C@H]1C
57	COC(=O)C1=C(C)N(C)C(=NCc2ccc(OC)cc2)NC1c1ccccc1C(F)(F)F (configuration not stated)
58	CN(C)C(=O)C[C@@H]1CC[C@@H]2[C@H](COC[C@H](O)CN2C(=O)C2CCCC2)O1
59	COc1ccccc1C(=O)Nc1ccc2c(c1)C(=O)N(C)[C@H]1CC[C@H](CC(=O)Nc3cccc(C(C)C)c3)O[C@@H]1CO2
60	CCS(=O)(=O)Nc1ccc2c(c1)C(=O)N(C)[C@@H]1CC[C@H](CC(=O)N[C@H]3CCN(Cc4ccccc4)C3)O[C@H]1CO2

Screen / compound no.,51,52,53,54,55,56,57,58,59,60
CSC inhib,·,·,·,·,·,·,·,·,·,·
UUG fidelity,·,·,·,·,·,·,·,·,·,·
HIV Env fusion,3[16.7 µM],10[16.7 µM],-9,2[16.7 µM],8[16.7 µM],37[16.7 µM],-34,-13[16.7 µM],15[16.7 µM],6[16.7 µM]

61	CO[C@H]1CN(C)C(=O)c2cc(NS(=O)(=O)CC(F)(F)F)ccc2OC[C@@H](C)N(CC2CCCCC2)C[C@@H]1C
62	COc1ccc(S(=O)(=O)Nc2ccc3c(c2)C(=O)N([C@@H](C)CO)C[C@@H](C)[C@H](CN(C)C)OCCCC[C@@H](C)O3)cc1
63	CN1C(=O)c2cc(NC(=O)c3ccccc3F)ccc2OC[C@H]2O[C@H](CC(=O)NCc3ccc4c(c3)OCO4)CC[C@@H]21
64	Cc1ccccc1OCCCN1CCC(C(O)(c2ccccc2)c2ccccc2)CC1
65	C[C@H](NC(=O)[C@H]1[C@H](CO)[C@H]2Cn3c(ccc(-c4ccccc4F)c3=O)[C@@H]1N2C)c1ccccc1

Screen / compound no.,61,62,63,64,65
CSC inhib,·,·,·,·,·
UUG fidelity,·,·,·,·,·
HIV Env fusion,-5[16.7 µM],-75[16.7 µM],21[16.7 µM],8,-12[16.7 µM]

# Compound activity: PubChem BioAssay, Broad Institute
